HSV augment = increases HSV replication in cells; maximum fold increase; HSV replication augmentation in cells, fold increase; 220,000 tested, 0.005% active; AID 1956;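 active = peak rise of 1.5-fold or more in the series; tested in PC3 cells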;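 also: first round at 10 µM; read as green reporter fluorescence; hits show the peak of a series up to 25 µM; 1 = signal of infected wells without compound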
INS promoter inh = TRM-6 insulin promoter activity inhibition; AID 1273; TRM-6 cells (human fetal islet line), insulin promoter-eGFP reporter, imaging; reporter expression induced with tamoxifen; inhibition, % at 2 µM; 130,000 tested, 0.9% active;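 active = inhibition above the mean plus 3 SD, with well images judged a real hit on visual review, cut at about 60% in these data, passing the limit was not always enough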
GALR2 ag = GALR2 (human) receptor agonism | O43603 | GALR2-expressing cells, agonist activation read-out | activation, %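 (tested at 5 µM)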 | 140,000 tested, 0.48% active | AID 803;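 active = above mean plus 3 SD of all compounds, about 5% in these data, not always enough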;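 also: 0% = vehicle buffer wells and 100% = reference agonist at full effect; tested in CHO reporter cells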
PKD1 kinase inh = inhibitors of human PKD1 kinase. inhibition, %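 (about 10 µM by stock and volumes)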. AID 797. PKD1 kinase fluorescence polarization assay. Q15139. 200,000 tested, 0.056% active;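 active = inhibition of 50% or more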;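 also: controls were vehicle for no effect and a reference inhibitor for full effect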
Target sequence (Q15139 whole entry, looked up): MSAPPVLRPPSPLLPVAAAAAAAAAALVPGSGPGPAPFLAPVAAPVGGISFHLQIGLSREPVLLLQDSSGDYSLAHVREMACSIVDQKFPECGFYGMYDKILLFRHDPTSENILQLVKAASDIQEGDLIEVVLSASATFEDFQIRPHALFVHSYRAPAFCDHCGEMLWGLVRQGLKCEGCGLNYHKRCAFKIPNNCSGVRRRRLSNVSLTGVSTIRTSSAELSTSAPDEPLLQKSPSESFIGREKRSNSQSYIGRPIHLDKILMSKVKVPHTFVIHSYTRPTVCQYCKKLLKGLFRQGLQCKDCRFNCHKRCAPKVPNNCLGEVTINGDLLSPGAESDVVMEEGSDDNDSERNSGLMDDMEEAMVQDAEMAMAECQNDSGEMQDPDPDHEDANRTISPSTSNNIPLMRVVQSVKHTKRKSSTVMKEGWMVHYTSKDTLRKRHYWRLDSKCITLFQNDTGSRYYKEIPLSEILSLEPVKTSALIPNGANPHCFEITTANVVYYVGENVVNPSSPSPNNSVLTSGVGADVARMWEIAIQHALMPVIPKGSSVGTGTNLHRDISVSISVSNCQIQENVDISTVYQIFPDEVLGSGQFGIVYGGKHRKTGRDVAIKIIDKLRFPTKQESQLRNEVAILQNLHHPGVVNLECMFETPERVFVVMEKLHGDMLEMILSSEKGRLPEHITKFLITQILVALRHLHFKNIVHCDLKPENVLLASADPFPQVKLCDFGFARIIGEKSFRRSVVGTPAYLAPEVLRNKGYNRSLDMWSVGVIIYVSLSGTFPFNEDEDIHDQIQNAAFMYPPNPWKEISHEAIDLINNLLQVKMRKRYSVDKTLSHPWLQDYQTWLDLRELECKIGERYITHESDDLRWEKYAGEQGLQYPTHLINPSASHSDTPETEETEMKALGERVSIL
RGS16-Gao = RGS16-Galphao interaction regulator (human); O15492+P09471; bead-based flow cytometry RGS16-Galphao binding, fluorescence; actives lie on both sides; binding response (% of control), % at 10 µM; 220,000 tested, 0.38% active;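 active = below 25% or above 175%, edge rows of some plates excepted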;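 also: Galphao activated by GDP with aluminum fluoride before binding; 100% = wells without compound and 0% = beads without RGS; some results beyond the cut were filed as inactive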
INS promoter inh cell count = further read-out of INS promoter inh, marked with its call; normalized cell count, %; measured here: cell count, toxicity; reference of the scale not given here;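 cells exposed to compound for 48 h; stained nuclei by imaging scaled within each plate; lower means fewer cells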
HSV augment primary fold = second read-out of HSV augment, no call of its own (marks repeat the call); fold increase; compound at 10 µM; measured here: primary screen fold increase 10 uM; tested in PC3 cells;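 GFP signal in the first replicate; 1 = infected wells without compound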
Numbers without * were called inactive; i = inactive; · = not tested or not shown.

#	mol	HSV augment	HSV augment primary fold	INS promoter inh	INS promoter inh cell count
1	CCc1ccc(NC(=S)N(Cc2ccccc2)Cc2ccccn2)cc1	i	0.95	20.0	113.9
2	CCn1cc(C(C)NC(=O)COc2ccc(Cl)cc2C)c(C)n1 (centres undefined)	i	0.93	-31.2	77.8
3	Cc1ccccc1C(=O)NN(C)c1nc2ccccc2nc1C(F)(F)F	i	0.86	-7.1	54.2
4	Nc1ncnc2c1ncn2[C@H]1C[C@H](O)[C@@H](COP(=O)(O)O)O1	i	1.03	22.7	133.9
5	Cc1ccccc1OCc1nc2ccc(S(=O)(=O)N3CCOCC3)cc2[nH]1	i	0.93	-62.5	111.7
6	Cc1onc(-c2c(Cl)cccc2Cl)c1C(=O)N1CCN(c2ccccc2)CC1	i	0.88	-15.0	70.2
7	CCc1ccccc1NC(=O)CSc1nnc(Cn2nnc3ccccc32)n1C	i	0.67	11.1	127.8
8	CCCCNC(=S)Nc1ccccc1F	i	0.8	48.6	80.7

#	GALR2 ag	PKD1 kinase inh	RGS16-Gao
1	·	0.3	107.5
2	-2.5	0.8	99.6
3	-0.9	-7.8	101.2
4	-1.2	-9.9	104.4
5	-2.6	-4.7	77.2
6	·	2.8	105.9
7	-2.0	-4.6	103.5
8	-0.3	0.9	104.8

(further entries)
#	mol	HSV augment	HSV augment primary fold	INS promoter inh	INS promoter inh cell count
9	Cn1sc(NC(=O)c2ccccc2)nc1=O	i	0.81	·	·
10	O=C1Nc2ccccc2C1(O)c1ccccc1 (centres undefined)	i	0.89	·	·
11	O=C(NCc1ccco1)Nc1ccc(Br)cc1Cl	i	1.02	-10.0	270.1
12	O=S1(=O)C=CC(Nc2cccc(Cl)c2)C1 (centres undefined)	i	0.64	74.1	89.2
13	CC(c1cccs1)N(C(=O)Nc1ccccc1)C1CCCCC1 (centres undefined)	i	0.87	40.0	74.7
14	O=C1CC(c2ccccc2)Oc2cc(O)cc(O)c21 (centres undefined)	i	0.91	·	·
15	Cc1ccc(C2CC(=O)c3cnn(-c4nc(C)cc(C)n4)c3C2)cc1 (centres undefined)	i	0.97	-131.0	1.5
16	CN(C)CCCNc1oc(-c2ccc(Cl)cc2)nc1C#N	i	0.91	15.8	94.4

#	GALR2 ag	PKD1 kinase inh	RGS16-Gao
9	-2.4	-8.1	96.8
10	·	-1.3	106.7
11	0.1	-7.0	118.3
12	-2.1	-0.8	95.3
13	-2.5	-4.0	100.4
14	·	·	92.5
15	-0.3	-5.7	107.9
16	-0.5	-14.0	102.0

The listing continues:
#	mol	HSV augment	HSV augment primary fold	INS promoter inh	INS promoter inh cell count
17	CC1(C)Cc2c(sc(NC(=O)c3ccco3)c2C(=O)O)CO1	·	·	-24.1	77.9
18	Cc1ccc(-n2ncc3c(NCc4ccco4)ncnc32)cc1C	i	0.75	25.0	111.1
19	CCOc1ccc(C(=O)NC(=S)Nc2ccc(NC(=O)c3ccco3)cc2)cc1[N+](=O)[O-]	i	1.12	·	·
20	O=C(O)C1CC=CCC1C(=O)NC12CC3CC(CC(C3)C1)C2 (centres undefined)	i	1.03	0.0	120.3
21	COc1ccc(NC(=O)c2ccccc2NC(=O)c2ccco2)c(OC)c1	i	0.93	35.3	71.2
22	CN1C(=O)c2cccc(N(C)C)c2C1=O	i	1	-12.1	101.3
23	Cc1ccc(S(=O)(=O)CCNC(=O)Cc2ccc(Cl)cc2)cc1	i	1.03	·	·
24	O=C(O)CSc1ncnc2scc(-c3ccc(Br)cc3)c12	i	1.23	·	·

#	GALR2 ag	PKD1 kinase inh	RGS16-Gao
17	-1.4	-0.5	100.2
18	·	-1.8	107.1
19	-1.1	0.0	157.2
20	-1.7	-8.8	102.1
21	-0.7	-14.6	100.7
22	-2.2	9.0	98.3
23	·	-6.0	105.2
24	·	·	98.0

Additional entries follow:
#	mol	HSV augment	HSV augment primary fold	INS promoter inh	INS promoter inh cell count
25	COc1cc(S(=O)(=O)Nc2c(C)cc(C)cc2C)ccc1Cl	i	0.83	0.0	174.3
26	Cc1ccc2cccc(OCc3ccccc3)c2n1	i	0.57	·	·
27	CCCn1c(C)cc(/C=C(\C#N)C(=O)O)c1C	i	1.07	·	·
28	CC(=O)Oc1cc2cccc(OC(C)=O)c(=O)c2c(OC(C)=O)c1OC(C)=O	·	·	·	·
29	O=C(Cn1cc2c(n1)CCCC2)NCCCN1CCN(C2CCCCC2)CC1	i	1.05	·	·
30	O=S(=O)(c1ccccc1)N1CCN(c2nc(-c3cccs3)nc3ccccc23)CC1	i	0.86	27.8	147.8
31	Cc1ccccc1OCC(=O)OC1CCN(C)CC1	i	0.99	32.4	47.9
32	CCOc1ccc(Cl)cc1CSc1ncn[nH]1	i	0.88	0.0	100.4

#	GALR2 ag	PKD1 kinase inh	RGS16-Gao
25	-0.5	-5.7	102.5
26	·	·	98.5
27	-0.7	-10.1	103.2
28	·	20.5	103.9
29	-0.8	-1.7	107.2
30	-2.5	-2.5	101.4
31	-2.7	-0.2	91.7
32	-0.9	5.5	98.7

Next part.
#	mol	HSV augment	HSV augment primary fold	INS promoter inh	INS promoter inh cell count
33	O=C(CSc1nnc(-c2ccccn2)n1-c1ccc(Cl)cc1)Nc1ccc2c(c1)OCO2	i	0.94	7.1	111.9
34	COC(=O)c1ccc(C2C(C#N)=C(N)Oc3cc(C)n(C)c(=O)c32)cc1 (centres undefined)	i	1.01	76.3*	44.4*
35	COc1ccnc(CSC(N)=Nc2cccc(C(F)(F)F)c2)c1	i	0.94	10.3	123.7
36	COc1ccccc1N1C(=O)CCC1(C#N)c1ccccc1 (centres undefined)	i	0.89	7.9	118.1
37	C#CCN1C(=O)C(O)(c2c(C)[nH]c3ccccc23)c2ccccc21 (centres undefined)	i	0.96	·	·
38	Cn1c(=N)n(CC(=O)O)c2ccccc21	i	0.94	0.0	36.5
39	COc1ccc(/C=C/C(=O)Nc2nnc(C(C)C)s2)cc1OC	i	0.99	·	·
40	CC1CCCN(CC(O)CN)C1 (centres undefined)	i	0.79	40.0	177.4

#	GALR2 ag	PKD1 kinase inh	RGS16-Gao
33	-2.5	-6.0	97.5
34	0.5	-1.8	93.6
35	-1.0	-7.9	99.3
36	-0.1	-5.7	103.8
37	·	·	97.6
38	-3.0	5.0	102.5
39	·	·	105.8
40	-3.7	-9.5	96.9

Following part.
#	mol	HSV augment	HSV augment primary fold	INS promoter inh	INS promoter inh cell count
41	CCN(CC)C(=O)CSc1nc2ccccc2c(=O)n1OC(C)C	i	0.88	28.6	93.4
42	CC(SC#N)C(=O)C12CC3CC(CC(C3)C1)C2 (centres undefined)	i	0.94	47.1	125.2
43	CCOc1ccc(NC(=S)NC2CC3CCC(C2)N3Cc2ccco2)cc1 (centres undefined)	i	1.11	·	·
44	CCOC(=O)c1c(CN2CCN(CCO)CC2)n(C)c2cc(Br)c(OC)cc12	i	0.94	·	·
45	Cc1c(C(=O)Nc2ccc3c(c2)OCCO3)sc2nc(-c3ccccc3)cn12	i	0.96	62.5	97.5
46	Clc1ccccc1-c1csc(Nc2cccnc2)n1	i	0.98	·	·
47	O=c1c2ccccc2oc2nc3ccn(Cc4ccncc4)c(=O)c3cc12	i	0.89	6.7	39.5
48	CCc1c(C)nc(N)c(C#N)c1-c1ccccc1	i	0.98	61.0	87.7

#	GALR2 ag	PKD1 kinase inh	RGS16-Gao
41	-0.2	-1.7	102.6
42	·	1.5	96.6
43	·	-3.7	106.2
44	-2.2	-20.2	150.7
45	0.8	0.2	125.7
46	·	·	92.3
47	-1.1	-4.9	96.4
48	·	2.7	98.9

Other results
#	mol	HSV augment	HSV augment primary fold	INS promoter inh	INS promoter inh cell count
49	CCOC(=O)N1CCC(n2c(=S)[nH]c3cc(OCC)c(OCC)cc3c2=O)CC1	i	1	11.1	66.5
50	N#CC(c1ccccn1)c1ncc(C(F)(F)F)cc1Cl (centres undefined)	i	0.9	·	·
51	O=C1c2ccccc2NC(c2ccco2)N1NS(=O)(=O)c1ccccc1 (centres undefined)	i	1.08	38.9	82.5
52	O=C(NCCCn1ccnc1)c1cc([N+](=O)[O-])cc([N+](=O)[O-])c1	i	1.02	73.3*	167.2*
53	COC(=O)c1ccc(/C=N/OCC(=O)NCc2ccc(F)cc2)cc1	i	0.92	·	·
54	CC1(C)CC(C(CC(=O)O)c2ccccc2)CCO1 (centres undefined)	i	0.88	-71.4	37.8
55	Cc1ccccc1OCC(=O)N/N=C/c1cn(C)c2ccccc12	i	0.96	·	·
56	Cn1c(=O)c(C(=O)CSc2nncs2)c(N)n(Cc2ccccc2)c1=O	i	0.69	-6.1	132.5

#	GALR2 ag	PKD1 kinase inh	RGS16-Gao
49	-1.6	1.4	99.1
50	·	-2.3	98.8
51	·	-3.3	91.3
52	0.3	-4.7	103.0
53	·	-0.4	109.9
54	-1.3	3.4	61.9
55	·	·	99.6
56	-1.1	1.3	100.6

Profiles, quoted from the list. Values in the order: HSV augment | HSV augment primary fold | INS promoter inh | INS promoter inh cell count | GALR2 ag | PKD1 kinase inh | RGS16-Gao
Cc1ccccc1OCC(=O)N/N=C/c1cn(C)c2ccccc12 across the screens: i | 0.96 | · | · | · | · | 99.6
COC(=O)c1ccc(/C=N/OCC(=O)NCc2ccc(F)cc2)cc1 across the screens: i | 0.92 | · | · | · | -0.4 | 109.9
O=C(NCCCn1ccnc1)c1cc([N+](=O)[O-])cc([N+](=O)[O-])c1 across the screens: i | 1.02 | 73.3* | 167.2* | 0.3 | -4.7 | 103.0
CCOC(=O)N1CCC(n2c(=S)[nH]c3cc(OCC)c(OCC)cc3c2=O)CC1 across the screens: i | 1 | 11.1 | 66.5 | -1.6 | 1.4 | 99.1
CC1(C)CC(C(CC(=O)O)c2ccccc2)CCO1 (centres undefined) across the screens: i | 0.88 | -71.4 | 37.8 | -1.3 | 3.4 | 61.9

(more compounds)
#	mol	HSV augment	HSV augment primary fold	INS promoter inh	INS promoter inh cell count
57	Cc1c(NC(=O)c2ccco2)cccc1C(=O)NN1C(=O)c2ccccc2C1=O	i	0.92	·	·
58	COC(=O)C1=C(N)N(c2ccccc2C(F)(F)F)C2=C(C(=O)CCC2)C1c1ccc2c(c1)OCO2 (centres undefined)	i	0.98	12.8	185.7
59	CN1CCN(C(=S)c2cn(Cc3ccccc3)c3ccccc23)CC1	i	1.01	17.6	134.1
60	CCOc1ccc(-c2cc(N)n(S(=O)(=O)c3ccc(OC)c(OC)c3)n2)cc1	i	0.69	·	·
61	CC1CCC(NC(=O)Cn2c(=O)[nH]c3ccsc3c2=O)CC1 (centres undefined)	i	1.05	·	·
62	O=C(N1CCOCC1)N1CCN(c2nc(-c3ccc(F)cc3)cs2)CC1	i	0.98	-36.4	134.5
63	CC(C)CCn1c(Sc2nc3ccccc3s2)nc2c1c(=O)[nH]c(=O)n2C	i	0.91	·	·
64	Cc1nc(-c2cccc(S(=O)(=O)N3CCCCC3)c2)cs1	i	1	·	·

#	GALR2 ag	PKD1 kinase inh	RGS16-Gao
57	·	2.0	98.1
58	-0.6	-4.3	105.3
59	·	-5.4	100.6
60	-0.8	4.5	99.8
61	-2.3	11.1	99.6
62	-1.4	-3.7	105.2
63	2.4	-10.8	102.4
64	·	·	98.0

Later entries
#	mol	HSV augment	HSV augment primary fold	INS promoter inh	INS promoter inh cell count
65	CCOc1ccc(S(=O)(=O)c2c(C(=O)c3ccc(C)cc3)cnc3cc4c(cc23)OCCO4)cc1	i	1	·	·
66	CCN(CC)C(=O)CCc1nnc(CCc2c[nH]c3ccccc23)o1	i	0.99	17.4	71.8
67	COc1ccc2c(c1)c1nc3ccccc3nc1n2Cc1ccc(OC)c(OC)c1	i	1.12	-61.8	56.7
68	CCCC1CCC(c2ccc(C(N)=O)cc2)CC1 (centres undefined)	i	0.94	·	·
69	O=C(CCN1C(=O)c2ccccc2C1=O)NC(=S)Nc1ccccc1	i	0.95	·	·
70	COC(=O)CCC(=O)NN1C(=O)c2ccccc2C1=O	i	0.97	-9.5	74.6
71	CC(C)CC(NC(=O)OC(C)(C)C)c1cn([C@@H](Cc2cc3ccccc3[nH]2)C(=O)N2CCN(C(=O)OC(C)(C)C)CC2)nn1 (some centres undefined)	·	·	·	·
72	CC1CCN(c2nnc(N)s2)CC1	i	0.91	·	·
73	O=[N+]([O-])c1ccc(-c2cnc[nH]2)cc1	i	0.91	·	·
74	CCOC(=O)CNC(=O)CSc1nc2ncc(Br)cc2[nH]1	i	0.83	12.5	59.3

#	GALR2 ag	PKD1 kinase inh	RGS16-Gao
65	-1.0	-1.3	97.7
66	·	-4.6	108.5
67	0.7	-1.1	114.0
68	-0.8	-8.0	94.7
69	0.3	6.1	104.4
70	·	-8.2	110.1
71	·	-3.4	102.3
72	-2.8	-4.9	102.4
73	·	·	98.9
74	-1.2	-0.7	100.5
